Screens deposited in PubChem by National Center for Advancing Translational Sciences (NCATS).
miR-21 reporter: miR-21 reporter, rising signal. HeLa miR-21 FLuc reporter, luciferase, 48 h. Potency, µM (top dose mostly 38.3 µM), inactives show top-dose reporter change, positive = more light. AID 2288. 340,000 tested, under 10 active; active = well fitted rising curve with a large enough effect; inconclusive = small, poorly fitted or top-dose-only effect; inactive = no such curve, though single readings can be large or run the other way;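 also: % of control where 0% means no effect; miR-21 action dims this reporter so a rising signal means less miR-21 action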
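HeLa miR-21-FLuc reporter line, endogenous miR-21; 2000 cells/well in DMEM/10% FBS; compound titration up to ~40uM final, 48 h, 37 degree Celsius; luciferase detection reagent, 15 min lysis, CCD luminescence.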
Rango release inh: inhibition of RanGTP-driven Rango-importin beta dissociation | 340,000 compounds, 0.071% hits | AID 540253 | Biochemical FRET Rango-importin beta, RanGTP-induced dissociation | O95149+P62826 | Potency, µM (top dose mostly 46.1 µM), inactives show at the top dose activity change, negative = inhibition; active means falling FRET ratio curve, often poorly fitted, with flat reads before Ran was added; inconclusive means other falling curves, or compound fluorescence or quenching; inactive means flat or rising ratio curve;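 also: potency is read from the fitted curve at half-maximal effect; % of control where 0% means no effect; nearly all actives have a fitted effect of over 45% in size; -100% = wells without RanGTP and RCC1; the record marks most hits as doubtful in a second field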
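Rango FRET biosensor (snurportin-1 IBB flanked by N-terminal EYFP and C-terminal CFP10) at 0.1 uM, with 0.25 uM importin beta in PBS, 1mM DTT, 0.02% Tween-20, 0.1% BSA. 0.6 uM Ran, 2mM GTP and 0.2 uM RCC1 were then added for 45 min at room temperature. Inhibition read as loss of FRET rise.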
Rango-impB inh: prevents formation of the Rango-importin beta complex; Q14974; AID 540263; 340,000 compounds, 0.031% hits; Rango CFP/YFP FRET sensor + importin beta, 45 min; Potency, µM (doses to about 92.2 µM), for inactives: top-dose inhibition of complex formation; active = rising FRET ratio curve, often small or poorly fitted; inconclusive = mostly compound fluorescence or quenching in the first reads; inactive = flat curves in all reads;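 also: potency is read from the fitted curve at half-maximal effect; 0% = DMSO wells and 100% = buffer wells lacking importin beta; nearly all actives have a fitted effect of over 15% in size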
Target sequence (Q14974 whole entry, looked up): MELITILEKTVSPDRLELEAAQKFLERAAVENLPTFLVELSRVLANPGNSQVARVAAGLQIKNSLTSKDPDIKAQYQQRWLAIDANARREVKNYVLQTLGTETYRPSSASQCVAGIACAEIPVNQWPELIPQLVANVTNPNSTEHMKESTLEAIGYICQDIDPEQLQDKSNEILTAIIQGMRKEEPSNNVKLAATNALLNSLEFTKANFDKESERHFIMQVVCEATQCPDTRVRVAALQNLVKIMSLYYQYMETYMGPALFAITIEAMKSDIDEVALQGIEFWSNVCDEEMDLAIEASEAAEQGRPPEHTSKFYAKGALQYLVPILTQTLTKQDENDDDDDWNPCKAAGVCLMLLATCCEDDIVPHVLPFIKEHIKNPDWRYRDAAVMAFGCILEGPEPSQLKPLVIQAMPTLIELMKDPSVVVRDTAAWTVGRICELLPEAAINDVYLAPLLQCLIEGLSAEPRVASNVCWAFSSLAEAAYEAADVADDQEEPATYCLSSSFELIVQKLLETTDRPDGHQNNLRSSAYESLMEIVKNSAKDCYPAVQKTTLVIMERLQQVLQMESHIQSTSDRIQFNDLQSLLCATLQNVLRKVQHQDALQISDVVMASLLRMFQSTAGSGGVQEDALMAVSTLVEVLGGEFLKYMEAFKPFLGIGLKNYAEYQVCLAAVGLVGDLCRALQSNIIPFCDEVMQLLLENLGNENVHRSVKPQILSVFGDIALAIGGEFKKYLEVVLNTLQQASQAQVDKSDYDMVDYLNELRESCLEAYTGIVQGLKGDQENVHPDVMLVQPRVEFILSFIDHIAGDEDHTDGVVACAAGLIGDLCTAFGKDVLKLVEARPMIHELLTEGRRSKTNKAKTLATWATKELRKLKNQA
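Inhibition scored from the CFP 486 nm/YFP 530 nm FRET ratio 45 min after adding 0.125 microM importin beta to 50 nM Rango biosensor preincubated 5 min with compound (room temperature, PBS with DTT, Tween-20, BSA). No-importin wells as positive control.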
GLA inh pH 4.5: alpha-galactosidase A (human) inhibition, pH 4.5 | purified enzyme, 4-MU-alpha-Gal fluorescence, pH 4.5 | activity change, negative = inhibition, % at 105 µM | P06280 | 230,000 tested, under 10 active; inconclusive = small, poorly fitted or top-dose-only inhibition, or a rising curve; inactive = flat fitted curve, though single readings scatter; no compound was filed as active;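 also: 0% = full activity with enzyme and -100% = basal without enzyme; dose as in the result columns while the protocol names 77 µM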
Active calls of the source: *; ? = inconclusive; / = no result given; & = joins results of further samples; [ ] = dose if it differs, or a comment. An excerpt; count on the stated rates, not on these rows.

Sequence of screens: GLA inh pH 4.5	Rango-impB inh	Rango release inh	miR-21 reporter
> Cc1ccc2c(Cl)c(C(=O)Nc3cccnc3)sc2c1
 : -4	-0.6%	1%	1%
> Cc1ccccc1N(CC(=O)NCCSc1ccccn1)S(=O)(=O)c1ccccc1
 : -8	-2.1%	1%	7%
> CCN(CC)C(=O)C1CCCN(c2ncnc3c2cnn3-c2cccc(C)c2)C1 (centres undefined)
 : 3	-3.4%	-5%	0%
> COc1cc(/C=N/N2CCCCC2)cc(OC)c1O
 : /	-0.7%	1%	-2%
> C=CCOc1ccc(/C=C/C(=O)OCC(=O)NCc2cccs2)cc1
 : /	-0.3%	15%	/
> COc1ccc(/C=N/NC(=O)c2cc(-c3ccccc3)nc3ccccc23)cc1O
 : /	-2.3%	9%	8%
> c1ccc(-n2nnnc2SCc2cccc(CSc3nnnn3-c3ccccc3)n2)cc1
 : 5	0.1%	13%	0%
> Cc1csc(C(C)N(C)C(=O)c2ccc(OC3CCN(Cc4ccccn4)CC3)cc2)n1 (centres undefined)
 : /	-1.9%	5%	9%
> CCOc1ccc(CCNC(=O)CN(C)S(=O)(=O)c2ccc3c(c2)CCC(=O)N3)cc1OCC
 : 2	-0.3%	9%	-3%
> C/C(=N/NC(=O)COc1ccc(C(C)(C)C)cc1)c1ccc(N2CCOCC2)cc1
 : /	-0.4%	4%	/
> O=C(Nc1cc(S(=O)(=O)Nc2ccccc2Cl)ccc1O)c1ccc(F)cc1F
 : /	-0.1%	1%	/
> Cc1n[nH]c(C)c1CCN(C)C(=O)C1CCC(=O)N(CC2CCCCC2)C1 (centres undefined)
 : /	-0.3%	-7%	-2%
> CNc1c(NS(=O)(=O)c2ccc(C(C)(C)C)cc2)c(=O)oc2ccccc12
 : /	-0.5%	-10%	-5%
> CCOc1cc(S(=O)(=O)NCCc2ccccc2C)c(OCC)cc1-n1cnnn1
 : -7	0.1%	0%	-12%
> C/C(CC(=O)Nc1ccccn1)=N\NC(=O)Cc1cccc2ccccc12
 : -5	-3.5%	-21%	-12%
> COC(=O)C(C)N(C#N)c1nc(NC(C)C)nc(SC)n1 (centres undefined)
 : 0	1.5%	6%	0%
> CCOc1ccc2[nH]c(=O)c(C(c3nnnn3Cc3ccco3)N3CCC(C)CC3)cc2c1 (centres undefined)
 : -5	?	3%	-1%
> Cc1cc(C)cc(OCC(=O)O/N=C(\N)c2ccccc2Cl)c1
 : 3	0.0%	8%	-14%
> CC(NC(=O)Cn1cc(C(F)(F)F)ccc1=O)c1ccc(F)cc1 (centres undefined)
 : 13	-4.1%	3%	-3%
> Cc1cccc(Cn2c(Sc3nc(C)cs3)nc3c2c(=O)[nH]c(=O)n3C)c1
 : 4	4.4%	-1%	-11%

2 successive entries out of the list so far, quoted:
Sequence of screens: GLA inh pH 4.5	Rango-impB inh	Rango release inh	miR-21 reporter
> Cc1ccc2c(Cl)c(C(=O)Nc3cccnc3)sc2c1
 : -4	-0.6%	1%	1%
> Cc1ccccc1N(CC(=O)NCCSc1ccccn1)S(=O)(=O)c1ccccc1
 : -8	-2.1%	1%	7%

Carrying on:
Sequence of screens: GLA inh pH 4.5	Rango-impB inh	Rango release inh	miR-21 reporter
> CN(C)c1ccc(/C=C(/NC(=O)c2ccccc2)C(=O)NCCCn2ccnc2)cc1
 : /	?	?	3%
> O=c1[nH]c(-[n+]2ccccc2)c(/C=N/N=C(\[O-])c2ccccc2)s1
 : -8	1.7%	-10%	-13%
> COc1cccc(/C=N\NC(=O)c2cc(OCC(F)(F)F)ccc2OCC(F)(F)F)c1
 : -19	-4.8%	1%	-6%
> CCOc1ccccc1N1CCN(C(=O)c2cc(S(=O)(=O)N3CCCCC3)ccc2C)CC1
 : /	-0.7%	-6%	/
> Cc1ccc(NC(=S)N(CCCN2CCCC2)Cc2cccn2Cc2ccc(Cl)cc2)cc1Cl
 : -10	0.0%	4%	-3%
> COc1ccc(CNCCC(c2ccccc2)C2CCOC(C)(C)C2)cc1 (centres undefined)
 : -4	-5.0%	5%	2%
> CC1CCCN(CCOCCOc2ccc(Br)cc2Cl)C1 (centres undefined)
 : -6	0.7%	-12%	0%
> Cc1ccc(C(=O)NCCC(=O)N2CCCC2)cc1
 : /	-0.1%	2%	-36%
> CCc1nnc(NC(=O)c2ccc(COc3ccc(C)cc3)o2)s1
 : 5	-5.5%	9%	-6%
> COc1ccc(NC(=O)C2CCCN(S(C)(=O)=O)C2)c(OC)c1 (centres undefined)
 : /	3.0%	35%	0%
> Cc1cc(=O)[nH]c2sc(C(=O)N3c4ccccc4CC3C)c(N)c12 (centres undefined)
 : /	0.5%	5%	/
> Cc1ccc(OCC(=O)NCCCNC(=O)c2ccc(C)nc2)cc1
 : /	0.5%	-22%	0%
> CCOC(=O)N1CCN(C(=O)CCCn2c(=S)[nH]c3ccccc3c2=O)CC1
 : 9	4.7%	-7%	1%
> COCCn1c(C)nnc1SCC(=O)NNC(=O)c1ccc(Cl)cc1
 : /	-2.6%	14%	-2%
> CCOC(=O)CSc1nc(-c2cccs2)nc2c1c(=O)n(C)c(=O)n2C
 : /	0.5%	10%	1%
> Cc1cc(S(=O)(=O)NCc2ccco2)c(C)s1
 : 7	-0.3%	29%	0%
> O=[N+]([O-])c1ccc(O)c(C2CCCCC2)c1
 : /	1.0%	6%	/
> Cc1ccc2[nH]c3c(=O)n(CC(=O)NCc4ccco4)ncc3c2c1
 : /	0.0%	21%	0%&4%
> COc1ccccc1N(CC(O)Cn1nc(C)cc1C)S(=O)(=O)c1ccccc1 (centres undefined)
 : -1	0.6%	36%	-4%
> CC(/C=C/c1ccc2c(c1)OCO2)=N\NC(=O)c1ccccc1
 : 1	0.6%	-7%	-34%
> CS(=O)(=O)N(CC(=O)Nc1ccccc1C(=O)N1CCOCC1)c1ccccc1
 : -5	1.3%	13%	0%
> CC1CN(S(=O)(=O)c2cc(C(=O)NC(C)c3cccnc3)ccc2Cl)CC(C)O1 (centres undefined)
 : /	0.0%	-1%	/
> CCCc1nnc(NC(=O)c2ccc(S(=O)(=O)N(C)c3ccccc3OC)cc2)s1
 : /	0.6%	1%	/
> COc1ccc(NS(=O)(=O)c2cccc(-c3nnc(-c4ccccc4)o3)c2)cc1
 : -6	2.6%	3%	-13%
> CCC1(C)OC(=O)N2CCc3c(C)[nH]c4c(C)ccc(c34)C21C (centres undefined)
 : 1	?	-11%	-1%
> CCCC1=[N+](CC(C)=O)CCn2c(C)ccc21
 : -8[21.1 µM]	-2.0%	-9%	1%
> Nc1nc(SCC(=O)N2CCc3ccccc3C2)[nH]c(=O)c1-c1ccccc1
 : -14	5.0%	5%	-13%
> CCOC(=O)N1CCC(N2CC34C=CC(O3)C(C(=O)Nc3ccc(C(C)C)cc3)C4C2=O)CC1 (centres undefined)
 : -11	-2.2%	22%	-12%
> C/C(N)=C(/C#N)C(=O)COC(=O)c1cc2c(s1)CCC(C)C2 (centres undefined)
 : -8	-0.6%	2%	-23%
> COc1ccc(C(=O)COC(=O)c2cnc(C)cn2)cc1OC
 : /	-6.0%	?	/
> O=C(COC(=O)CNC(=O)c1ccccc1)Nc1cccc(Br)c1
 : -10	1.1%	0%	-2%
> COc1ccccc1NC(=O)c1c(Nc2ccccc2C)sc(C(=O)Nc2cccc(Cl)c2)c1N
 : -1	1.2%	3%	?
> CCC1(CC)NC(=O)N(CC(=O)OCC(=O)Nc2ccc(F)c(F)c2F)C1=O
 : -6	0.0%	-6%	0%
> Nc1nc(CC(=O)CSc2ccc(Cl)cc2)nc(Nc2ccc(F)cc2)n1
 : 3	/	/	-2%
> O=C(Oc1cccnc1)c1ccc(Cl)cc1
 : -2	-2.5%	-16%	-8%
> CC1CCCCC1NC(=O)c1cc(S(=O)(=O)N2CCCCC2)ccc1N1CCOCC1 (centres undefined)
 : /	-2.9%	8%	/
> COc1cccc(-c2nnn(CC(C)=O)n2)c1
 : -2	-5.0%	28%	-43%
> NC(=O)c1sc(=S)n(-c2ccc(Br)cc2)c1N
 : -2	0.7%	-1%	-49%
> O=C(CN(Cc1ccc2c(c1)OCO2)C(=O)CNS(=O)(=O)c1ccccc1)NCC1CCCO1 (centres undefined)
 : -1	1.9%	1%	-1%
> CC(=O)N1CCN(C(=O)COc2ccc(N(C)S(=O)(=O)c3cccs3)cc2)CC1
 : 1	-0.2%	9%	0%

Of the compounds above, 3 contain bromine.
Sequence of screens: GLA inh pH 4.5	Rango-impB inh	Rango release inh	miR-21 reporter
> CC1CCCN(CCOCCOc2ccc(Br)cc2Cl)C1 (centres undefined)
 : -6	0.7%	-12%	0%
> O=C(COC(=O)CNC(=O)c1ccccc1)Nc1cccc(Br)c1
 : -10	1.1%	0%	-2%
> NC(=O)c1sc(=S)n(-c2ccc(Br)cc2)c1N
 : -2	0.7%	-1%	-49%

(list continues)
Sequence of screens: GLA inh pH 4.5	Rango-impB inh	Rango release inh	miR-21 reporter
> O=C(Cn1cc([N+](=O)[O-])cn1)Nc1ccc(Cn2cc(Br)cn2)cc1
 : -19	-2.0%	-11%	0%
> Fc1ccc(CNc2nc3ccccc3n3cnnc23)cc1
 : -9	-0.4%	-5%	-3%
> COC(=O)/C=c1/s/c(=C(/C#N)C(=O)N2CCOCC2)n(-c2ccccc2)c1=O
 : -7	4.9%	3%	1%
> COc1ccc(C2C(C#N)=C(N)N(c3sc4c(c3C#N)CCCC4)C3=C2C(=O)CC(C)(C)C3)cc1OC (centres undefined)
 : -17	?	-22%	-15%
> CC1CCc2c(C(=O)OCC(=O)Nc3cccc(S(=O)(=O)N4CCCCCC4)c3)csc2C1 (centres undefined)
 : -8	0.9%	-1%	-3%
> Cc1ccc(S(=O)(=O)N2CCN(C(=O)COC(=O)CCCOc3ccccc3)CC2)c(C)c1
 : /	2.1%	0%	/
> CC1(C)NC(=O)N(CCCCOc2ccccc2[N+](=O)[O-])C1=O
 : -3	/	/	-8%
> CCCCCCC1CC(CSC(=N)N)OC1=O (centres undefined)
 : -5	1.5%	27%	10%
> CCCn1nc2cc(C(=O)NC3CCc4ccccc43)ccc2c1OCC (centres undefined)
 : 6	-5.0%	-17%	-5%
> CC1CC(C)CN(C(=O)CCNC(=O)c2ccccc2Cl)C1 (centres undefined)
 : /	-6.1%	0%	20%
> O=C(Nc1nc(-c2ccc(Cl)s2)cs1)c1cccs1
 : 5	?	?	-18%
> O=C(Nc1ccccc1-c1ccccc1)NC1CC2CCCC(C1)N2Cc1ccc(F)cc1 (centres undefined)
 : -11	0.0%	-12%	-8%
> O=C(O)CCSc1nnc(-c2ccncc2)n1-c1ccccc1
 : 7	-1.3%	11%	-7%
> CCOC(=O)Cn1c(=NC(=O)CN2C(=O)CCC2=O)sc2cc(S(N)(=O)=O)ccc21
 : 9	0.7%	5%	-1%
> Cc1ccc2c(ccn3cc4c(c(=O)n(C)c(=O)n4C)c23)c1
 : 0	-0.2%	-12%	-9%
> CC1=C(C(=O)Nc2cccnc2)C(c2cccnc2)n2ncnc2N1 (centres undefined)
 : 0	-2.5%	-10%	0%
> COc1ccc(C2Nc3ccccc3C(=O)N2Cc2ccco2)cc1COc1ccc(NC(C)=O)cc1 (centres undefined)
 : -16	-3.7%	-22%	0%
> CCOc1ccc(NC(=O)c2ccc(CNc3c(N4CCCC4)c(=O)c3=O)cc2)cc1
 : 14	4.3%	-1%	-26%
> O=C(CN(C(=O)C1CSC(=O)C1)c1cccc(F)c1)NC1CCCC1 (centres undefined)
 : 5	-2.9%	-6%	0%
> Cc1nn(Cc2ccc(Cl)cc2Cl)c(C)c1NC(=O)Cn1nc([N+](=O)[O-])c(Cl)c1C
 : 2	-0.1%	?	-4%
> CSc1nsc(/C=C/Nc2ccc(F)cc2F)c1C#N
 : -1	?	-6%	-10%
